# Bioassay records deposited in PubChem by National Center for Advancing Translational Sciences (NCATS).
# Cruzain noTriton: qHTS Assay for Promiscuous and Specific Inhibitors of Cruzain (without detergent). Cruzipain (Trypanosoma cruzi), P25779. purified cruzain, Z-FR-AMC fluorescence, no detergent. Potency, µM, for inactives: max response, negative = inhibition, most hits filed as inhibitors. 200,000 tested, 2.3% active;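 further: plate controls were enzyme without inhibitor for no effect and buffer without enzyme for full effect; nearly all actives have a fitted effect of over 40% in size; top concentration of the series not given in the record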
# Target sequence (P25779 123-467 limits assumed): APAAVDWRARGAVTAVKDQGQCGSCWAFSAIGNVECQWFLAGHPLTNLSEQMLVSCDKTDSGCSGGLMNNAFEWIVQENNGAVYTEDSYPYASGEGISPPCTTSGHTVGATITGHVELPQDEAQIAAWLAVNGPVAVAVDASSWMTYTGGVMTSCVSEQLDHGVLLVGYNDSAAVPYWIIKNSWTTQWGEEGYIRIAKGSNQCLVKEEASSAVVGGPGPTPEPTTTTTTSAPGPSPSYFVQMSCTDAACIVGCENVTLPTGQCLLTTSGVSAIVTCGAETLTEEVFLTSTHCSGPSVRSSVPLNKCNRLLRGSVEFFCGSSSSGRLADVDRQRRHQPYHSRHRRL
#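 Detergent-free condition (0.00005% Triton X-100) in acetate buffer pH 5.5 with DTT. 1.5 nM enzyme and compound were pre-mixed 15 min, then 2 uM Z-FR-AMC substrate added; reaction progress from fluorescence change between first and third reads (60 s).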
# Cruzain inh Det: qHTS Assay for Promiscuous and Specific Inhibitors of Cruzain (with detergent); Cruzipain (Trypanosoma cruzi), P25779; purified cruzain, Z-FR-AMC fluorescence, 0.01% Triton; Potency, µM, for the others: max response, negative = inhibition, actives largely listed as inhibitors; 200,000 tested, 0.43% active; AID 1478, 2009;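 further: plate controls were neutral wells for no effect and buffer without enzyme for full effect; nearly all actives have a fitted effect of over 40% in size; top concentration of the series not given in the record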
#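 Steps: dispense cruzain (1.5 nM final) in acetate buffer pH 5.5 with DTT and 0.01% Triton X-100; pin-transfer compounds; incubate 15 min RT; add Z-FR-AMC (2 uM final); read fluorescence every 30 s, using the 60 s intensity change.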
# StopGo reporter: High Throughput Screening for Foot and Mouth Disease Virus Antivirals; human cells with a luciferase reporter of 2A StopGo recoding; control for the full effect not named in the record; Potency, µM (titrated, usually from 57.9 µM), inactives show at the top dose signal change, negative = less light; 410,000 tested, 1.2% active; AID 1159524, 2015; active = well fitted falling curve with a large enough effect; inconclusive = small, poorly fitted or top-dose-only effect; inactive = no such curve, though single readings can be large or run the other way; tested in HEK293T cells; further: on the % scale 0 is the no-effect control and ±100 the full control effect; nearly all actives have a fitted effect of over 45% in size; luciferase light after 4 h
# Lassa entry inh: qHTS for Inhibitors of binding or entry into cells for Lassa Virus. Potency, µM (top dose mostly 37.9 µM), without a hit: at the top dose activity change, negative = inhibition, usual class: inhibitors. AID 540256, 2011. Lassa virus pseudotype entry inhibition, cell reporter; control for the full effect not named in the record. 300,000 tested, 1.2% active; active means well fitted inhibition curve with a large enough effect; inconclusive means small, poorly fitted or top-dose-only effect, or effect the other way; inactive means flat fitted curve, though single readings scatter; tested in HEK293 cells; further: on the % scale 0 is the no-effect control and ±100 the full control effect; nearly all actives have a fitted effect of over 50% in size; luciferase read-out
# MARV entry inh: qHTS for inhibitors of binding or entry into cells for Marburg Virus. AID 540276, 2011. 300,000 tested, 1.8% active. Potency, µM (highest dose often 37.8 µM), inactives show at the top dose activity change, negative = inhibition, usual class: inhibitors. Marburg virus pseudotyped entry inhibition, cell reporter; control for the full effect not named in the record; about a third of the inactives were read at about 46 µM; active = well fitted inhibition curve with a large enough effect; inconclusive = small, poorly fitted or top-dose-only effect, or effect the other way; inactive = flat fitted curve, though single readings scatter; tested in HEK293 cells; about a fifth of its hits are not listed in these tables; further: on the % scale 0 is the no-effect control and ±100 the full control effect; luciferase read-out
# SARS PLpro yeast: qHTS of Yeast-based Assay for SARS-CoV PLP; 330,000 tested, 0.19% active; S. cerevisiae expressing SARS-CoV PLpro, growth rescue; control for the full effect not named in the record; Potency, µM (series often up to 32.9 µM), for the others: at the top dose activity, positive = growth rescue; active means well fitted rising curve with a large enough effect; inconclusive means small, poorly fitted or top-dose-only effect; inactive means no such curve, though single readings can be large or run the other way; further: 0% is about no effect; nearly all actives have a fitted effect of over 55% in size; growth read by luminescence after 48 h
# RE007 growth inh: qHTS Assay for Inhibitors of the HIV-1 protein Vpr; 360,000 tested, 0.21% active; Potency, µM (series often up to 92.2 µM), for inactives: top-dose activity change, negative = less growth; S. pombe RE007 Vpr strain, BacTiter-Glo ATP luminescence, 24 h; control for the full effect not named in the record; active = well fitted falling curve with a large enough effect; inconclusive = small, poorly fitted or top-dose-only effect; inactive = no such curve, though single readings can be large or run the other way;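 further: on the % scale 0 is the no-effect control and ±100 the full control effect; nearly all actives have a fitted effect of over 50% in size; the assay follows cell death caused by Vpr and the record does not say whether a fall means rescue or toxicity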
#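 Fission yeast RE007 carrying one integrated HIV-1 vpr copy, seeded at OD 0.01 in PMG+AL medium with 23 nL pinned compound. Grown 24 h at 30 degrees; viability read by BacTiter-Glo luminescence after 5 min.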
# NS1 function inh: qHTS Assay for Inhibitors of Influenza NS1 Protein Function | Potency, µM (doses to about 46.1 µM), for the others: at the top dose activity, positive = more growth | S. cerevisiae slowed by influenza A NS1, growth recovery by OD600 | AID 2326, 2010 | 270,000 tested, 0.4% active; active means well fitted rising curve with a large enough effect; inconclusive means small, poorly fitted or top-dose-only effect; inactive means no such curve, though single readings can be large or run the other way; further: nearly all actives have a fitted effect of over 50% in size
#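 S. cerevisiae expressing influenza A NS1, grown in glucose, washed, then diluted 1:100 into pH 6.0 -URA galactose medium with 23 nl compound. Growth recovery read as OD600; NS1-free strain serves as control.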
# The depositor's hits bear a star; ? = inconclusive; / = not tested or not shown; & = joins results of further samples; [ ] = dose if it differs, or a comment. Unless noted, the call rests on the fitted dose curve; in most records, active means well fitted curve in the direction sought with a large enough effect; inconclusive means small, poorly fitted or top-dose-only effect, or another doubt; inactive means no such curve, though single readings can be large; an effect the other way counts as inactive or inconclusive. Potency means the concentration at half of the fitted maximal effect. Random draw from the library; about 4.7% have a hit in one of these screens.
SMILES,Cruzain noTriton,Cruzain inh Det,StopGo reporter,Lassa entry inh,MARV entry inh,SARS PLpro yeast,RE007 growth inh,NS1 function inh
Cc1ccc(NC(=O)Cn2cnc3c(oc4ccccc43)c2=O)cc1Cl,?,-8.9%,0%,-18%[46.1 µM],/,/,/,/
COC(=O)c1ccc(C2C(C(=O)Nc3ccc(C)cc3C)=C(C)Nc3ncnn32)cc1 (centres undefined),-3%,4.7%,-12%,/,1%,-5%,15%,22µM*
Cc1cc(N2CCN(C)CC2)nc2ccc(NC(=S)N3CCOCC3)cc12,/,/,15%,?,-15%[46.1 µM],3%,-6%,/
CS(=O)(=O)N1CCC(C(=O)Nc2ccccc2Cl)CC1,/,/,-3%,/,/,-6%,3%,-4%
CN(C)CCn1c2c(c(SCC(=O)Nc3ccc4c(c3)OCCO4)nc1=O)CCC2,/,/,-1%,15%,10%,-4%,3%,/
COc1ccc(-c2ccc(C#N)c(SCC(=O)Nc3sc4c(c3C#N)CCC4)n2)cc1OC,-1%,-14%,1%,15µM*,?,2%,4%,6%
COc1c(Br)cc(Br)cc1C(=O)O,-11%,1.1%,6%,29%,19%,-7%,17%,-74%
Cc1ccc(NC(=O)c2cc(-c3ccco3)nc3ccccc23)cc1S(=O)(=O)N1CCOCC1,/,/,-21%,-22%,?,0%,-12%,/
S=C(NCc1ccco1)Nc1cccc(Cl)c1Cl,/,/,31%[activator],-13%[46.1 µM],?,7%,24%,4%
C/C(=C\C(=O)O)CC(=O)O,-3%,5.4%,-4%,-4%,7%&7%[46.1 µM],-8%,5%,9%
CC1=C/C(=N\NC(=S)NCc2ccccc2)CC1,/,/,78%[activator],3%,-7%,?,-16%,-2%
Nc1c(C(=O)OCC(=O)Nc2ccccc2Br)[nH]c(=O)[nH]c1=O,/,/,17%,8%,14%,-24%,1%,/
CCCCNC(=O)CSc1c2c(nc3ccc(Cl)cc13)CCCC2,-12%,-15%,?,?,-20%[46.1 µM],/,/,/
Cc1oc2ccc(O)c(CN3CCN(C)CC3)c2c1C(=O)Nc1cccc(C(F)(F)F)c1,-7%,-4.5%,?,?,-25%[46.1 µM],/,/,/
COc1ccc(-c2nc(CSCC(=O)NCCC(C)C)c(C)o2)cc1OC,-6%,1.6%,-15%,3%[46.1 µM],0%[46.1 µM],/,/,/
COc1cccc(OC)c1C(=O)Nc1cccc(-c2nc3ccccc3[nH]2)c1,/,/,1%,-3%,-5%[46.1 µM],1%,-13%,1%
COCCNC(=O)C(c1ccc(F)cc1)N(CCOC)C(=O)CCC(=O)Nc1nccs1 (centres undefined),14%,0.8%,-17%,-4%,?,-4%,5%,-3%
CCOc1ccc(NC(=O)NC2CCOC(C)(C)C2)cc1 (centres undefined),2%,1.0%,-5%,20%,27%,?,2%,-8%
O=C(CSc1nc2ccc(Cl)cc2[nH]1)NC1CCCC1,/,/,-22%,/,/,-3%,5%,7%
CCc1ccc(N(C(=O)c2snc(C(N)=O)c2N)C(C(=O)NCCC(C)C)c2c[nH]c3ccccc23)cc1 (centres undefined),?,-0.3%,-21%,-32%,-10%,-4%,-2%,24%
O=C(CSc1nc2c(c(=O)n1-c1ccc(Cl)cc1)SCC2)N1CCCC1,-4%,-2.1%,9%,-9%,5%,6%,16%,-5%
Cn1c(CN2CCN(C(=O)c3ccccc3Cl)CC2)nc2cc([N+](=O)[O-])ccc21,-14%,-7.5%,-7%,-9%,9%[46.1 µM],11%,2%,-7%
Cc1ccc(NC(=O)CCN2CCC(Cc3ccccc3)CC2)cc1,/,/,2%,?,?,-1%,-6%,-3%
COc1ccc(CCNC(=O)c2cc(-c3ccccc3OC)on2)cc1OC,7%,-4.8%,?,72%[14.3 µM],-11%,0%,-3%,-15%
c1ccc2c(CNC3CCCCCC3)c[nH]c2c1,6%,-4.1%,?,-2%,13µM*,?,-9%,-8%
# Continued.
SMILES,Cruzain noTriton,Cruzain inh Det,StopGo reporter,Lassa entry inh,MARV entry inh,SARS PLpro yeast,RE007 growth inh,NS1 function inh
CN(c1ccccc1C(=O)NC1CC2CCC1C2)S(=O)(=O)c1ccccc1 (centres undefined),-10%,-0.3%,-15%,-1%,9%,-10%,-5%,-27%
Cc1ccc2c(CC(=O)NCc3ccccc3)coc2c1C,-14%,-4.9%,-4%,-22%[46.1 µM],?,/,/,/
CC(C)CNS(=O)(=O)c1ccc(CCC(=O)N2CCN(c3ccccc3)CC2)cc1,/,/,?,?,?,0%,15%,0%
COc1ccc(NS(=O)(=O)c2cc(NC(=O)c3nn(C)c(=O)c4ccccc34)ccc2OC)cc1,/,/,62%[activator],-20%[46.1 µM],17%[46.1 µM],0%,4%,/
CC(=O)c1ccc(N2CCN(C(=O)Cc3ccccc3)CC2)c(F)c1,/,/,-2%,0%,?,0%,10%,-1%
CC(C)(C)NC(=O)CN(Cc1ccc(F)cc1)C(=O)Cn1nnc(-c2ccc(F)cc2)n1,/,/,35%[activator],/,/,0%,5%,-3%
CCN(CC(=O)NCc1cccs1)C(=O)COc1ccccc1C#N,/,/,21%,11%,-9%,-7%,6%,/
CC(C)C(NC(=O)c1ccc(C(C)(C)C)cc1)C(=O)O (centres undefined),13%,5.6%,-17%,-5%,-5%,15%,-9%[3.69 µM],12%
CN(CC(=O)Nc1ccc(Cl)cc1)S(=O)(=O)c1cccc2cccnc12,-15%,-1.0%,-14%,/,/,2%,7%,-41%
Cc1nnc(SCC(=O)NC2CCCc3ccccc32)n1-c1ccccc1 (centres undefined),-13%,-4.1%,-3%,?,5%,3%,8%,0%
COC(=O)c1c(NC(=O)C(C)(C)C)csc1C,/,/,-23%,11%,6%[46.1 µM],-1%,-7%,-2%
O=C(NC1CCCCC1)C1(S(=O)(=O)c2ccc(Cl)cc2)CC1,/,/,-11%,-9%[46.1 µM],6%[46.1 µM],1%,5%,-9%
CCCc1cc(=O)c2ccc(OCC(C)=O)cc2o1,/,/,9%,0%,8%,1%,-10%,-4%
COc1cc(/C=N/NC(=O)c2cc(C)oc2C)ccc1OCc1ccccc1,/,/,4%,-8%[46.1 µM],?,-1%,-15%,-3%
CCOCC(=O)Nc1c(C(=O)N2CCN(c3ncccn3)CC2)oc2ccccc12,/,/,35%[activator],/,/,-1%,8%,-9%
C=CCn1c(N)c(C(=O)N2CCOCC2)sc1=S,-13%,-3.7%,79%[activator],-1%,-28%,-2%,4%,0%
CC1=C(C(=O)N2CCOCC2)C(c2ccccc2F)NC(=O)N1 (centres undefined),/,/,-12%,4%,19%[46.1 µM],-1%,18%,1%
COc1ccccc1N1CCN(Cc2cc(=O)c(OCC(=O)Nc3ccccc3)co2)CC1,/,/,?,?,?,7%,3%,/
COc1ccccc1CCc1nnc(CCC(=O)N(C)Cc2ccncc2C)o1,/,/,-8%,/,/,0%,7%,1%
O=c1[nH]c2ccc(NS(=O)(=O)c3ccc(F)c(Cl)c3)cc2[nH]1,/,/,13%,?,-21%[46.1 µM],1%,-11%,-4%
CC12CCC(=O)N1C(C(=O)N1CCN(c3ccc([N+](=O)[O-])cc3)CC1)CS2 (centres undefined),/,/,?,2%[46.1 µM],-19%,3%,7%,/
C/C(Cc1ccccc1)=N\NC(=O)CNC(=O)c1ccccc1Cl,/,/,19%,3%[46.1 µM],-6%[46.1 µM],5%,3%,3%
COC(=O)[C@@H]1C(c2c(OC)cc(OC)cc2OC)=NO[C@H]1C(=O)OC,-1%,-1.5%,-1%,27%,7%,13%,4%,-3%
Cc1cc(C=O)c(C)n1-c1ccc(N2CCOCC2)c([N+](=O)[O-])c1,/,/,-17%,3%[46.1 µM],?,-1%,2%,/
COc1ccc(CCCNC(=O)CC#N)cc1OC,-5%,5.2%,-15%,23%,-4%&-4%,-2%,-8%,-3%
# The list goes on.
SMILES,Cruzain noTriton,Cruzain inh Det,StopGo reporter,Lassa entry inh,MARV entry inh,SARS PLpro yeast,RE007 growth inh,NS1 function inh
COc1cc(/C=C/C(=O)O)cc(S(=O)(=O)NNC(=O)c2ccc3c(c2)OCO3)c1OC,/,/,8%,0%,13%,1%,9%,/
Cc1ccc(S(=O)(=O)N2CCCCC2)cc1NC(=O)Cc1c[nH]c2ccccc12,?,-5.8%,-5%,-9%,-3%,-13%,-1%,10%
COc1ccc(C(=O)COC(=O)c2ccc(Cl)nc2)cc1OC,/,/,-4%,25%,24%,-2%,36%,/
Cc1ccc(NC(=O)CS(=O)CC(=O)Nc2ccc(N3CCOCC3)cc2)cc1Cl (centres undefined),-27%,-1.8%,8%,?,-13%,-9%,5%,11%
CN(C)N=Nc1ccc(S(=O)(=O)N2CCSC2C(=O)O)cc1 (centres undefined),/,/,6%,22%,?,/,-4%,/
O=C(O)c1ccc(S(=O)(=O)N2CCC(n3nnc4cc(C(F)(F)F)ccc43)CC2)cc1,/,/,-3%,9%,14%[46.1 µM],0%,15%,2%
Cc1coc2cc3oc(=O)c(CCC(=O)N4CCC(C(=O)O)(c5ccccc5)CC4)c(C)c3cc12,/,/,-18%,/,/,-2%,7%,8%
COc1ccc(-c2nc3c4c(ncn3n2)-c2ccccc2CC42CCCC2)cc1,?,-1.9%,32µM*,0%,10%,-24%,3%,-3%
COc1ccc(C(=O)NC(=S)NCc2ccccc2)cc1,0%,-1.4%,39%[activator],-7%,22%,27%,-19%,11%
CCCOc1ccc(C(C(=O)OCCN(CC)CC)c2ccccc2)cc1 (centres undefined),-5%,-0.7%,-23%,-5%,?,11%,-5%,-4%
Cc1ccc(CNC(=O)C(C)n2nc(C)c3sc4ccccc4c3c2=O)cc1 (centres undefined),4µM*,-4.6%,-3%,?,10%[46.1 µM],/,/,/
CCC(C(=O)Nc1ccc(S(=O)(=O)N2CCN(C)CC2)cc1)c1ccccc1 (centres undefined),/,/,-9%,16%,16%,/,3%,/
COc1ccc(C(=O)n2nc(-c3ccco3)nc2SC)cc1OC,-4%,-3.7%,0%,23%,-6%,-2%,-20%,1%
COc1cccc2c1cc1c(=O)n(CC(=O)NCc3ccc(N(C)C)cc3)nc(C)n12,10%,0.9%,-10%,/,?,/,/,/
